# HSV augment: increases HSV replication in cells; HSV replication augmentation in cells, fold increase; maximum fold increase; hit rate 0.005% among 220,000; AID 1956;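 active means peak rise of 1.5-fold or more in the series; tested in PC3 cells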;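 further: first round at 10 µM; read as green reporter fluorescence; hits show the peak of a series up to 25 µM; 1 = signal of infected wells without compound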
# PKD1 inh: inhibitors of human PKD1 kinase; Q15139; PKD1 kinase fluorescence polarization assay; inhibition, %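 (about 10 µM by stock and volumes)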; hit rate 0.056% among 200,000; AID 797;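 active means inhibition of 50% or more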;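 further: controls were vehicle for no effect and a reference inhibitor for full effect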
# RGS16-Gao: RGS16-Galphao interaction regulator (human); O15492+P09471; bead-based flow cytometry RGS16-Galphao binding, fluorescence; actives lie on both sides; binding response (% of control), % at 10 µM; hit rate 0.38% among 220,000; AID 1441;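 active means below 25% or above 175%, edge rows of some plates excepted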;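 further: Galphao activated by GDP with aluminum fluoride before binding; 100% = wells without compound and 0% = beads without RGS; some results beyond the cut were filed as inactive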
# Target sequence (O15492 whole entry, looked up): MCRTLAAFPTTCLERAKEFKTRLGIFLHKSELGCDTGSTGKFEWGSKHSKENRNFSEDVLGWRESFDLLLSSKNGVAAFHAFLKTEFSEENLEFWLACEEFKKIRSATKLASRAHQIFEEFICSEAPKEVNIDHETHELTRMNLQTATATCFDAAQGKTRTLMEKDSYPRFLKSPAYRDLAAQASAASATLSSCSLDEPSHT
# Target sequence (P09471 whole entry, looked up): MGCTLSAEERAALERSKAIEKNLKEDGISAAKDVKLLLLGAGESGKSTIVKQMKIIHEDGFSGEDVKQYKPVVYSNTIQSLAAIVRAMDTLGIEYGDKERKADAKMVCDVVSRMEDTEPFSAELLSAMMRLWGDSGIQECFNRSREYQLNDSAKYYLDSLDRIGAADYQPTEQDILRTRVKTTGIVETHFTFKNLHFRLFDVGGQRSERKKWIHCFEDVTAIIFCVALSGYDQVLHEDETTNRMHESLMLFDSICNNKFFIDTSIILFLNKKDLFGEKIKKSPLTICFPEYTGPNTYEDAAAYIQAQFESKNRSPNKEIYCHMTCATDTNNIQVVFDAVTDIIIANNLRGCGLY
# GALR2 ag: GALR2 (human) receptor agonism | GALR2-expressing cells, agonist activation read-out | activation, %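 (tested at 5 µM)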 | hit rate 0.48% among 140,000 | AID 803;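 active means above mean plus 3 SD of all compounds, about 5% in these data, not always enough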;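 further: 0% = vehicle buffer wells and 100% = reference agonist at full effect; tested in CHO reporter cells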
# Target sequence (O43603 whole entry, looked up): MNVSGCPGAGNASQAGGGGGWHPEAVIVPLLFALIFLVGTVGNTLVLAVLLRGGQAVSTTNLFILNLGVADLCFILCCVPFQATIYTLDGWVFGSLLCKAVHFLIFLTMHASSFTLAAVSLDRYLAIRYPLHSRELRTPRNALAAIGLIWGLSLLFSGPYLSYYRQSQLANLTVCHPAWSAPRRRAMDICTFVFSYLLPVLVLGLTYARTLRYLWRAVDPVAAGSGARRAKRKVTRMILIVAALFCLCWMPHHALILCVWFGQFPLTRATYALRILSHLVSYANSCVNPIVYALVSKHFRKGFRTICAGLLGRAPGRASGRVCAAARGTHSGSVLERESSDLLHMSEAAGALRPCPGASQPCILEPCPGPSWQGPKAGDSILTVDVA
# INS promoter inh: TRM-6 insulin promoter activity inhibition; TRM-6 cells (human fetal islet line), insulin promoter-eGFP reporter, imaging; reporter expression induced with tamoxifen; inhibition, % at 2 µM; hit rate 0.9% among 130,000; AID 1273;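 active means inhibition above the mean plus 3 SD, with well images judged a real hit on visual review, cut at about 60% in these data, passing the limit was not always enough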
# INS promoter inh cell count: recorded beside INS promoter inh, whose call it bears; normalized cell count, %; measured here: cell count, toxicity; reference of the scale not given here;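 cells exposed to compound for 48 h; stained nuclei by imaging scaled within each plate; lower means fewer cells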
# HSV augment primary fold: also measured in HSV augment; calls as there; fold increase; compound at 10 µM; measured here: primary screen fold increase 10 uM; tested in PC3 cells;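 GFP signal in the first replicate; 1 = infected wells without compound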
# * = called active by the depositor; i = inactive; . = not tested or not shown; [ ] = another dose, or the depositor's remark.
SMILES,HSV augment,HSV augment primary fold,PKD1 inh,RGS16-Gao,GALR2 ag,INS promoter inh,INS promoter inh cell count
O=C(COC(=O)c1cccc([N+](=O)[O-])c1)NCc1cccs1,i,1,-4,98,.,.,.
O=C(NCc1cccs1)C1CCN(S(=O)(=O)c2ccccc2F)CC1,i,1.2,.,94,.,.,.
Cc1cc(C)c(S(=O)(=O)Nc2cccnc2)c(C)c1,i,0.87,-5,101,-1.2,.,.
COc1ccc(C(=O)NN)cc1COc1ccc(Br)cc1,i,0.91,-6,103,-2.9,24,134
C#Cc1ccc([C@@H]2C=C(C(=O)NCc3ccccc3)O[C@H](OCC)[C@H]2CCCO)cc1,i,0.75,2,99,.,.,.
O=C1C(C=NCc2cccnc2)=C(O)c2ccccc21,i,0.98,0,97,-1.1,.,.
COCCNC(=O)Nc1ccc2c(c1)N(C)C(=O)c1ccccc1S2,i,0.99,-1,101,.,.,.
O=S1(=O)CCN2N=C(C3CC3)SC2=N1,i,0.91,-1,100,.,.,.
Cc1cccc(N=C2Sc3nc4c(C)c(C)ccc4cc3CN2CCN2CCOCC2)c1,i,0.79,-5,76,-1.1,.,.
CCOC(=O)C1CCN(C(=O)C(C)Sc2ccc(Cl)cc2)CC1 (configuration not stated),i,0.92,-1,101,-0.6,-115,69
Cc1ccccc1/C=N/N=C1/NC(=O)CCS1,i,0.82,.,100,.,.,.
CC(=O)Nc1ccc(C(=O)n2nc(C)cc2C)cc1,i,1,-5,108,-2.8,22,88
O=C(COc1ccc(S(=O)(=O)NC2CCCCC2)cc1)N1CCN(c2cccc(Cl)c2)CC1,i,1.1,0,100,-3.1,-20,113
CC(C)CNC(=S)NC1CC2CCCC(C1)N2Cc1ccco1 (configuration not stated),i,0.8,1,103,-1.4,.,.
O=C(CSc1nnnn1-c1ccccc1Cl)Nc1ccc2c(c1)OCCO2,i,1,-6,177,-2.6,.,.
CCOC(=O)C1CCN(C(=O)CN(c2ccc(OC)c(OC)c2)S(=O)(=O)c2ccccc2)CC1,i,0.94,-1,104,-2.9,.,.
CCNC(=O)Cn1cc(C(F)(F)F)cc(Cl)c1=O,i,0.99,.,103,.,.,.
NS(=O)(=O)c1ccc(CCNC(=O)c2ccccc2F)cc1,i,0.89,-15,100,-0.8,-115,38
COc1ccc(N)cc1C#N,i,0.93,4,94,-3.1,.,.
Cc1ccc(NC(=O)C2=C(O)CCn3c2nc2ccccc23)cc1,i,1.1,-8,99,0.3,21,129
COCC(=O)Nc1ccc(S(=O)(=O)Nc2ncccn2)cc1,i,0.8,0,100,-0.7,.,.
COCCNC(=S)N=Nc1c(O)[nH]c2ccc([N+](=O)[O-])cc12,i,0.95,.,109,.,.,.
CCN(CC)CCCNC(=O)CN1C(=O)CSc2ccc(S(=O)(=O)N3CCOCC3)cc21,i,0.98,-8,108,-1.4,14,92
CCOC(=O)C1=NOC(CNC(=O)C2=NOC(CNC(=O)c3c(-c4ccccc4Cl)noc3C)C2)C1 (configuration not stated),i,0.89,3,98,-2.2,-13,42
COC(=O)C1=C(N)Oc2cc(C)n(CC3CCCO3)c(=O)c2C1c1ccc(Cl)c(Cl)c1 (configuration not stated),i,0.69,-6,100,-1.8,-220,149
CC(C)C12CN3CC(C(C)C)(CN(C1)C3c1ccccc1O)C2=O (configuration not stated),i,0.78,-5,95,0.3,.,.
Cc1cccc(N2CC(c3nc4ccccc4[nH]3)CC2=O)c1 (configuration not stated),i,0.92,4,105,.,.,.
Cc1[nH]n(-c2ccccc2)c(=O)c1C(=O)c1cccc(F)c1,i,1.1,0,99,.,.,.
CC(C)Cc1cc(C(=O)NCCCN2CCOCC2)no1,.,.,-2,104,.,.,.
COc1ccccc1N1CCN(CC(=O)c2c(C)[nH]c3cc(C)ccc23)CC1,i,0.91,-12,101,-1.0,.,.
CC(C)CCSc1nnc(N)s1,i,1,.,99,.,.,.
CCOC(=O)c1cc(-c2ccccc2)sc1NC(=O)c1cc(OC)c(OC)c(OC)c1,i,0.91,-11,100,-0.7,46,155
OCCCN1CCN(CCCOc2ccccc2-c2ccccc2)CC1,i,1.1,-11,179*[activator],-1.6,0,77
OC(COC(c1ccc(Cl)cc1)c1ccc(Cl)cc1)CN1CCc2ccccc2C1 (configuration not stated),i,0.95,5,107,-0.4,-33,91
CCN(c1ccccc1)S(=O)(=O)c1ccc(Cl)c(NC(=O)COC(=O)c2ccc(Cl)c(N)c2)c1,i,0.93,-15,106,0.8,-3,95
CCCCNC(=O)Nc1nnc(-c2ccc(OCC)cc2)o1,i,1,5,98,-1.7,9,197
COCCN(C(=S)Nc1cccc(C)c1)C(C)c1cccnc1 (configuration not stated),i,0.96,-1,98,.,.,.
Cc1ccc(CNC(=O)CN2C(C)CCCC2C)cc1 (configuration not stated),i,0.98,-1,107,.,57,70
S=C(Nc1ccc(Cl)cc1)Nc1ccc2cn[nH]c2c1,i,0.89,-3,102,.,25,116
CCc1ccc(/C=C2\SC(=S)N(CCC(=O)N3CCN(C)CC3)C2=O)cc1,i,1.2,5,99,.,.,.
COc1ccc(NC2CS(=O)(=O)CC2OC(=O)c2ccc(F)cc2)cc1 (configuration not stated),i,0.86,1,103,-0.7,.,.
Cc1cc(C)n(-c2cc(N3CCN(C(=O)c4cccc(F)c4)CC3)ccc2[N+](=O)[O-])n1,i,1.2,-3,108,-0.8,21,81
O=C(CN1C(=O)c2cccc3cccc1c23)NCc1ccc2c(c1)OCO2,i,0.89,-3,191,-2.0,3,105
O=C(Cc1ccccn1)Nc1ccccc1,i,0.87,-2,119,-2.1,-6,111
CCc1c(C)sc(NC(=O)c2cc(-c3ccc(O)cc3)on2)c1C#N,i,0.82,-6,104,-0.7,.,.
CC(=O)NNC(=O)CCn1nnc(-c2ccc(Cl)cc2)n1,i,1,2,99,.,.,.
CCOC(=O)C1CCN(C(=S)Nc2ccc(C)cc2)CC1,i,0.93,5,96,.,11,133
Cc1cc(NC(=O)CSc2nc3ccccc3s2)no1,i,1,-6,100,-4.2,22,123
c1ccc(CC2CCCNC2)cc1 (configuration not stated),i,1,0,103,.,.,.
CC1CCCN(Cc2c(O)ccc3c(=O)c(-c4nc5ccccc5s4)c(N)oc23)C1 (configuration not stated),i,0.5,7,92,0.1,-27,100
c1ccc(-c2cnnc(N3CCOCC3)n2)cc1,i,0.96,-5,11,-1.9,64,45
CCCCOC(=O)NC(NCC(O)c1ccccc1)(C(F)(F)F)C(F)(F)F (configuration not stated),i,1.2,-9,104,-0.8,-29,70
Cc1ccc(C(=O)Nc2cccc(-c3nc4ncccc4o3)c2)cc1,i,0.96,.,89,.,.,.
COC(=O)CC/C(O)=C1\C(=O)CC(C)(C)CC1=Nc1ccccc1OC,i,0.95,-3,121,0.9,43,118
CCN(CC)c1ccc(/C=N\NC(=O)c2cccc3cc[nH]c23)cc1,i,0.72,.,97,.,.,.
CSc1ccc(Cn2nnc(C(=O)NCCc3ccc(Cl)cc3)c2N)cc1,i,0.88,.,96,.,.,.
Cc1cc(C)c2c(=O)n(CC(=O)NCCCN3CCN(c4ccccc4F)CC3)sc2n1,.,.,-2,99,-2.3,.,.
Cc1nnc(SC(=O)N2c3ccccc3Sc3ccccc32)s1,i,0.46,-6,101,-1.0,.,.
Nc1nc(-c2ccccc2)c(-c2ccccc2)o1,i,1,.,97,.,.,.
CCOP(=O)(c1ccccc1)c1nc(-c2ccc(F)cc2)oc1N1CCCCC1 (configuration not stated),i,0.96,9,100,-1.3,.,.

# Some of the entries so far, with two lines to a compound.
# Every second line gives: HSV augment, HSV augment primary fold, PKD1 inh, RGS16-Gao, GALR2 ag, INS promoter inh, INS promoter inh cell count
Cc1ccccc1/C=N/N=C1/NC(=O)CCS1
    i, 0.82, ., 100, ., ., .
O=C(CSc1nnnn1-c1ccccc1Cl)Nc1ccc2c(c1)OCCO2
    i, 1, -6, 177, -2.6, ., .
CCOC(=O)C1CCN(C(=O)C(C)Sc2ccc(Cl)cc2)CC1 (configuration not stated)
    i, 0.92, -1, 101, -0.6, -115, 69
O=C(Cc1ccccn1)Nc1ccccc1
    i, 0.87, -2, 119, -2.1, -6, 111
CCOC(=O)C1=NOC(CNC(=O)C2=NOC(CNC(=O)c3c(-c4ccccc4Cl)noc3C)C2)C1 (configuration not stated)
    i, 0.89, 3, 98, -2.2, -13, 42
OC(COC(c1ccc(Cl)cc1)c1ccc(Cl)cc1)CN1CCc2ccccc2C1 (configuration not stated)
    i, 0.95, 5, 107, -0.4, -33, 91

# (list continues)
SMILES,HSV augment,HSV augment primary fold,PKD1 inh,RGS16-Gao,GALR2 ag,INS promoter inh,INS promoter inh cell count
COCCCNc1nc2c(c(=O)[nH]c(=O)n2C)n1CC(O)COc1ccccc1 (configuration not stated),i,0.87,-3,87,-0.7,24,45
COc1ccc(CC(=O)O/N=C(\N)Cc2cccc3ccccc23)cc1,i,1.2,15,87,-0.6,-27,115
Cc1cc2c(cc1C)NC1=C(N2)OC(c2cccc(O)c2)C1=O (configuration not stated),i,0.94,.,103,.,.,.
Cc1cc(NC(=O)CSc2nnc(-c3ccc4c(c3)OCCO4)o2)no1,i,0.92,-2,104,-2.7,-300,49
Cc1ccc(C(=O)N2CCN(c3ncnc4c(-c5ccccc5)nsc34)CC2)cc1,i,0.91,-2,105,.,0,84
O=C(COc1ccc([N+](=O)[O-])cc1)NCc1ccncc1,i,1.1,2,102,.,-29,117
COCCCNC(=O)CC1C(=O)N(Cc2ccccc2)C(C)c2nc3ccccc3n21 (configuration not stated),i,0.92,5,102,.,-95,45
CC(=O)C1=C(C)Nc2ncnn2C1c1ccc(Cl)cc1 (configuration not stated),i,0.93,-8,102,-3.3,46,133
Cc1ccc(C)c(NC(=S)Nc2ccc(S(=O)(=O)Nc3ncccn3)cc2)c1,i,1.1,-7,33,-0.7,0,87
CCOC(=O)CNC(=O)Cn1c(C)cc2ccccc2c1=O,i,0.9,-4,99,-1.9,50,146
CC(=O)N[C@@H](Cc1c[nH]c2ccccc12)C(=O)OCC(=O)Nc1ccc(Cl)c(S(=O)(=O)N(C)C)c1,i,0.96,-3,99,.,.,.
CN(C(=O)c1ccno1)c1nnc(-c2ccccn2)s1,i,1,-9,104,-1.1,33,44
c1ccc(-c2csc(N3CCSCC3)n2)cc1,i,1.1,-2,99,.,27,105
Nc1ccc2c(c1)Oc1ccccc1C=C2,i,0.96,0,243,.,-124,48
CCOc1cccc2cc(C(=O)N3CCc4ccccc43)c(=O)oc12,i,1,-12,103,-1.6,-17,86
Cc1cc(C)c2c(N)c(C(=O)NN3CC(=O)N(c4ccccc4)CC3=O)sc2n1,i,0.87,.,96,.,.,.
CCOC(=O)C1CCN(CC(=O)Nc2ccc(OC)c(Cl)c2)CC1,i,1.1,-8,99,.,-64,88
Cc1ccc2[nH]c(C(=O)O)c(NC(=O)c3ccccc3[N+](=O)[O-])c2c1,i,0.93,-5,90,-0.4,-16,96
COCCCN1C(=O)C(=O)/C(=C(/O)c2ccc(OCC(C)C)cc2)C1c1cccnc1 (configuration not stated),i,0.92,-10,106,-2.1,-3,74
COc1ccc(C(=O)CSc2nc3nc(C)cc(C)n3n2)cc1OC,i,1.1,-8,122,-2.9,-26,238
CCc1c(C)nc(SCC(=O)N2CCN(c3ccccc3)CC2)[nH]c1=O,i,0.91,1,101,.,-93,102
CC(=O)Nc1ccc(/C=N/Nc2ccc(C(=O)c3c(C)cc4ccccn34)cc2[N+](=O)[O-])cc1,i,0.93,.,89,.,.,.
Cc1cccc(N2CCN(C(=O)c3cc(C)oc3C)CC2C)c1 (configuration not stated),i,1.1,-2,121,-0.8,26,80
COc1ccc(NC(=O)N2CCCC2)cc1OC,i,0.83,2,99,-4.1,.,.
Cc1onc(-c2ccccc2)c1C(=O)Nc1cccc(OC(C)C)c1,i,0.88,0,101,-3.4,-79,87
Cc1nc(N2CCN(C(=O)c3ccco3)CC2)c2c3c(sc2n1)CCC3,i,0.87,-1,59,-0.8,.,.
Cc1cc(Cl)ccc1N=C1N=C(N)c2ccccc21,i,0.95,5,106,-0.8,59,115
O=C(c1cncc(Br)c1)N1CCN(c2ccc(N3CCOCC3)nn2)CC1,i,0.83,2,104,-1.1,.,.
CSc1ccccc1-c1nnc(-c2ccc(C)cc2)o1,i,0.98,9,101,-1.1,33,42
CCOC(=O)C(C)NC(=O)Cn1ncc2c(=O)oc3ccc(C)cc3c21 (configuration not stated),i,1,.,114,.,.,.
CC(=O)c1cccc(NC(=O)C(C)N(C)CC(=O)Nc2ccc(Cl)cc2)c1 (configuration not stated),i,0.82,.,95,.,.,.

# Fetched by compound from the list above (2):
SMILES,HSV augment,HSV augment primary fold,PKD1 inh,RGS16-Gao,GALR2 ag,INS promoter inh,INS promoter inh cell count
Cc1cc(C)c2c(N)c(C(=O)NN3CC(=O)N(c4ccccc4)CC3=O)sc2n1,i,0.87,.,96,.,.,.
CCOC(=O)C1CCN(C(=S)Nc2ccc(C)cc2)CC1,i,0.93,5,96,.,11,133
